# ClpP mod – qHTS Assay for Activators of ClpP. ATP-dependent Clp protease proteolytic subunit (Bacillus subtilis (strain 168)), P80244. purified B. subtilis ClpP, FRET peptide cleavage, 20 min. Potency, µM (series often up to 57.5 µM), inactives show top-dose activity change, negative = active. hit rate 1.9% among 340,000. AID 651965, 2013; active = well fitted falling curve with a large enough effect; inconclusive = small, poorly fitted or top-dose-only effect; inactive = no such curve, though single readings can be large or run the other way; also: potency is read from the fitted curve at half-maximal effect; the source files actives as falling curves though it sought activators and does not explain the sign; nearly all actives have a fitted effect of over 65% in size; many hits overshoot -100%
# Target sequence (P80244 whole entry, looked up): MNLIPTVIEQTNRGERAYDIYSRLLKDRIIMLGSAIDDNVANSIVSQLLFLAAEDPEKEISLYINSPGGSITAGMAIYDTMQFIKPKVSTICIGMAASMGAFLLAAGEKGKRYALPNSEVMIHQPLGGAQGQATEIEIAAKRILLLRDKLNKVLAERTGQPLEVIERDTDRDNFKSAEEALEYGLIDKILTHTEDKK
#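 Purified B. subtilis ClpP, 10 microg/mL final in Tris/HCl pH8 with KCl, BSA, glycerol and Tween-20, cleaved an Abz/nitrotyrosine-quenched decapeptide. Fluorescence (ex 320, em 430) was read at 0 and 20 min at room temperature. Delta was normalized to 5.8 microM ADEP and DMSO/no-enzyme controls.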
# Menin MLL FP FL – displaces fluorescein MLL peptide from human menin. Fluorescence polarization, fluorescein-MLL peptide displacement from menin. FP activity change, % at 61.4 µM. 290,000 tested, under 10 active; inconclusive = falling polarisation curve, or a change in total fluorescence; inactive = total fluorescence flat and polarisation flat or rising; no compound was filed as active; the % refers to the polarisation; negative = inhibition;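 also: % of control where 0% means no effect; inhibitors lower the polarisation; unlabelled MLL peptide was the positive control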
# Sfp PPTase inh – blocks B. subtilis Sfp PPTase activity; Biochemical Sfp PPTase activity, qHTS; hit rate 3.5% among 310,000; Q9F4F7; Potency, µM, without a hit: max response, negative = inhibition, usual class: inhibitors; AID 1490; active = well fitted inhibition curve with a large enough effect; inconclusive = small, poorly fitted or top-dose-only effect, or another doubt; inactive = no such curve, though single readings can be large or run the other way;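 also: the enzyme is Sfp with the accession as filed and its product quenches rhodamine fluorescence; potency is read from the fitted curve at half-maximal effect; 0% = enzyme reaction without inhibitor and -100% = no enzyme wells; top concentration of the series not given in the record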
#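 Buffer: 50 mM Hepes-Na pH 7.6, 10 mM MgCl2, 0.01% Nonidet P-40, 0.01% BSA. Enzyme 15 nM, pre-exposed to compound 15 min; substrates then added and fluorescence change tracked over 30 min.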
# TRPML1 blocker – blocks the human TRPML1 channel; Q9GZU1; TRPML1-inducible cells, Ca2+ dye fluorescence, FDSS; stronger effect = lower value; inhibition of EC80 agonist-evoked calcium signal; activity change, negative = inhibition, % (test concentration not listed); hit rate 0.02% among 390,000; in the data active means activity change below about -50%; inconclusive means about -30% to -50%; inactive means above about -30%;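 also: stimulus is agonist 54-4 at its EC80 concentration; % is scaled to controls: 0 for no effect and ±100 for the full control effect; compound concentration not given in the record; the text of the record puts the active cut at -80%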
#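 TRPML1-DL cells, Tet-induced overnight (~16 h, 37 °C) at 1,500 cells/well, were loaded with Ca8 no-wash dye plus quencher for 45-90 min at room temperature. Compounds were pinned during FDSS kinetic reading; agonist 54-4 at EC80 (4 uM final) then added.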
# TRPV1 potentiator – enhances activation of the human vanilloid receptor TRPV1 | TRPV1-expressing cells, Fluo-8 calcium influx, capsaicin EC20 potentiation; host cell line not named in the record; control for the full effect not named in the record | AID 540277 | potentiation, % at 8.33 µM | hit rate 0.02% among 320,000; active means potentiation above 80%; inconclusive means 30% to 80%; inactive means below 30%; also: 0% is about no effect
# Target sequence (Q8NER1 whole entry, looked up): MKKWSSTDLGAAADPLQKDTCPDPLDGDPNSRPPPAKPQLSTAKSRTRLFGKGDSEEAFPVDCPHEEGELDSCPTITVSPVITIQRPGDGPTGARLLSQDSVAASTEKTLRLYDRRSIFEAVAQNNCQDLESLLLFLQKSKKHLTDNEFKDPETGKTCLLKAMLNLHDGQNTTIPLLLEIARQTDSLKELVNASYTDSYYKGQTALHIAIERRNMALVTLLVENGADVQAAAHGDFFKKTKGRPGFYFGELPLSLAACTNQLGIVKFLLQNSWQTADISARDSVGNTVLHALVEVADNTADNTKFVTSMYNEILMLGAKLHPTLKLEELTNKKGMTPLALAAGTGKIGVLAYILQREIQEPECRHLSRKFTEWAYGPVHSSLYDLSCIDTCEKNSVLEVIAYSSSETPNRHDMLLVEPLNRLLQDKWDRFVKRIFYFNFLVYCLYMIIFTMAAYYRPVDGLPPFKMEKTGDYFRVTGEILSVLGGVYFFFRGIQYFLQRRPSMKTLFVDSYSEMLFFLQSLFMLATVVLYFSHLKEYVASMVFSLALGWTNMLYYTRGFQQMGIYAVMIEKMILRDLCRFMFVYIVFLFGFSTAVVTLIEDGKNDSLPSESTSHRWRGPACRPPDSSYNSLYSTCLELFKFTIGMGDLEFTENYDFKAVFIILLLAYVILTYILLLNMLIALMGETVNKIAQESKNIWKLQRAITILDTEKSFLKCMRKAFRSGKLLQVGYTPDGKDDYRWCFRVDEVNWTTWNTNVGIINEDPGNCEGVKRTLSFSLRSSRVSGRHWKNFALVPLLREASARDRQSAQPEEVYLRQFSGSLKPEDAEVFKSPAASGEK
#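 TRPV1-expressing cells were cultured overnight at 35.5C and loaded with Fluo-8 calcium dye for 40 to 90 min at room temperature. After a 10 s baseline, compound was added and calcium influx was read kinetically for 3 min (ex 480/em 520 nm).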
# TRPML1 agonist – activates the human TRPML1 channel; Q9GZU1; hit rate 0.12% among 410,000; TRPML1-expressing cells, Ca2+ dye fluorescence, FDSS; host cell line not named in the record; reference of the full effect not given here; activation, % (concentration not given with the values); AID 624414; in the data active = activation above about 50%; inconclusive = about 30% to 50%; inactive = below about 30%; also: 0% is about no effect; the text of the record puts the active cut at 80%
#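 Cells: TRPML1-DL, 1X Tet inducer, ~16 h at 37 degrees C/5% CO2. Dye: ABD Ca8 no-wash + quencher, 45-90 min RT. Read: 10 s baseline, compound add, 110 s agonist phase; 54-4 EC80 (4uM final), 110 s antagonist phase.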
# PINK1 expr mod – changes PINK1 expression. PINK1 immunofluorescence, high-content cytometry, 24 h. AID 624263. Potency, µM (series often up to 76.6 µM), inactives show at the top dose activation (PINK1 increase), most hits filed as activators. hit rate 0.2% among 410,000; active = well fitted activation curve with a large enough effect; inconclusive = small, poorly fitted or top-dose-only effect; inactive = flat fitted curve, though single readings scatter; cell line not stated here;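 also: potency is read from the fitted curve at half-maximal effect; % of control where 0% means no effect; nearly all actives have a fitted effect of over 65% in size; a mitochondrial uncoupler was the plate control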
#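 Compound titrations (5 concentrations, 24 h) on a stable cell line; DMSO and CCCP controls. Endpoint: fixed-cell PINK1 immunofluorescence with mitochondrial, cell and nuclear markers, scanned by microplate cytometer.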
# Active calls of the source: *; ? = inconclusive; / = no result given; & = joins results of further samples; [ ] = dose if it differs, or a comment.
SMILES,ClpP mod,Menin MLL FP FL,Sfp PPTase inh,TRPML1 blocker,TRPV1 potentiator,TRPML1 agonist,PINK1 expr mod
Cc1cc(Br)ccc1NC(=O)CN(C)C(=O)c1ccccc1OCc1c(C)noc1C,-1.1%,/,/,1,/,-0.8,0.8%
O=C(CNC(=O)[C@@H]1Cc2ccccc2CN1)Nc1ccc2c(c1)OCCO2,0.3%,-2.0,-1%,-5,-1,-0.2,0.1%
CCOC(=O)CN1C(=O)N[C@@H](c2cccs2)C(C(=O)OC)=C1C,1.8%,6.4[11.7 µM],4%,5,/,-0.1,1.5%
CCn1c2ccccc2c2nnc(SCC(=O)N3CC(C)OC(C)C3)nc21 (centres undefined),1.1%,-2.0,-16%,6,-7,-0.1,6.1%[38.3 µM]
CC(=O)c1ccc(NC(=O)CCNC(=O)c2ccccc2Cl)cc1,/,-2.6,1%,-11,8,-0.3,-0.4%
COC(=O)c1ccc2nc(C)c(C)nc2c1,-3.7%,-3.7,11%,2,3,0.0,/
CC(=O)n1nc(-c2ccco2)nc1N,1.1%,2.1,13%,0,-3,-0.4,-0.3%
O=C(NCCO)/C(=C/c1cccc([N+](=O)[O-])c1)NC(=O)c1ccco1,/,2.7,23%,-8,1,0.3,-1.0%
O=C(OCC(=O)N1CCNC1=O)c1ccccc1Cl,-2.9%,/,/,2,/,-0.3,1.5%
O=C(Nc1ccc2nc(SCC(=O)N3CCCC3)sc2c1)c1ccc(Br)cc1,0.4%,/,/,-1,/,2.1,-1.4%
Cc1c(Cl)cccc1N(CC(=O)NC1CCCCC1)S(C)(=O)=O,0.0%,2.2,-1%,-5,-4,-0.7,0.2%
Cc1ccc(CN2CCN(Cc3cccn3-c3ccc(Cl)cn3)CC2CCO)o1 (centres undefined),/,4.0,2%,-16,2,-0.6,-1.1%
O=C(O/N=C1/CCSc2ccccc21)c1ccccc1,-6.4%,2.1,79µM*,8,-2,0.9,-1.2%
Cc1c(Cl)cccc1NC(=S)NCc1ccc(Cl)cc1,-2.2%,/,/,-14,/,0.3,4.5%
COC(=O)C1=[N+]([O-])OC(C(=O)OC)C1c1c[nH]c2ccccc12 (centres undefined),-3.3%,-1.9,10%,-6,1,0.5,-3.3%[38.3 µM]
CCCCC(=O)NN(C)c1nc(-c2ccccc2)nnc1C(F)(F)F,0.8%,1.5,8%,-2,-1,-1.0,3.4%
CCOc1ccc(-c2ccc(SCC(=O)Nc3nnc(CC)s3)nn2)cc1,/,1.6,3%,5,2,0.2,1.4%
O=C(CNS(=O)(=O)c1cccs1)N1CCN(c2ccccn2)CC1,?,-0.7,9%,-2,16,0.3,-0.5%
COc1ccccc1C(=O)Nc1ccnn1C1CCN(Cc2ncc[nH]2)CC1,-5.3%,2.3,0%,7,-2,-0.6,-0.2%
CCOC(=O)CN1C(=O)/C(=C/c2ccc(Cl)cc2)Oc2ccccc21,/,?,-7%,-9,-12,0.6,15%
Cc1c(C)c2c(cc(C)c3c(-c4ccccc4)coc32)oc1=O,-4.0%,/,/,3,/,1.4,-0.6%
CCS(=O)(=O)c1ccc2oc(Nc3ccccc3C)nc2c1,-0.6%,2.6,18%,7,-2,-0.8,0.1%
COC(=O)[C@H](Cc1ccccc1)NC(=O)[C@@]1(C)C[C@@H]1[C@@H](NC(=O)OCc1ccccc1)c1ccccc1,3.3%,6.9&-5.0,20%&23%,9,-6,0.9,3.9%
COc1cc(OC)c(OC)cc1CNCCSc1nnnn1C,/,-3.5,9%,8,5,-0.7,0.1%

# Reformatted: results already given
O=C(CNS(=O)(=O)c1cccs1)N1CCN(c2ccccn2)CC1
  ClpP mod: ?
  Menin MLL FP FL: -0.7
  Sfp PPTase inh: 9%
  TRPML1 blocker: -2
  TRPV1 potentiator: 16
  TRPML1 agonist: 0.3
  PINK1 expr mod: -0.5%
COC(=O)c1ccc2nc(C)c(C)nc2c1
  ClpP mod: -3.7%
  Menin MLL FP FL: -3.7
  Sfp PPTase inh: 11%
  TRPML1 blocker: 2
  TRPV1 potentiator: 3
  TRPML1 agonist: 0.0
  PINK1 expr mod: /
Cc1ccc(CN2CCN(Cc3cccn3-c3ccc(Cl)cn3)CC2CCO)o1 (centres undefined)
  ClpP mod: /
  Menin MLL FP FL: 4.0
  Sfp PPTase inh: 2%
  TRPML1 blocker: -16
  TRPV1 potentiator: 2
  TRPML1 agonist: -0.6
  PINK1 expr mod: -1.1%
Cc1c(C)c2c(cc(C)c3c(-c4ccccc4)coc32)oc1=O
  ClpP mod: -4.0%
  Menin MLL FP FL: /
  Sfp PPTase inh: /
  TRPML1 blocker: 3
  TRPV1 potentiator: /
  TRPML1 agonist: 1.4
  PINK1 expr mod: -0.6%

# Next compounds.
SMILES,ClpP mod,Menin MLL FP FL,Sfp PPTase inh,TRPML1 blocker,TRPV1 potentiator,TRPML1 agonist,PINK1 expr mod
Cc1cc(NC(=O)CCC(=O)N(Cc2ccco2)C2(C(=O)NC3CCCCC3)CCN(C)CC2)no1,0.2%,-2.3,15%,-2,?,0.9,1.0%
C[C@]12c3[nH]c4ccccc4c3CCN1C(=O)C(CC(=O)NCCN1CCOCC1)C[C@@H]2C(=O)N1CCCCC1 (some centres undefined),-3.4%,/,/,43,/,-0.6,0.3%
O=C(NCCc1ccc(O)c(O)c1)C1COc2ccccc2O1 (centres undefined),-1.0%,-3.0,50µM*,3,-32,1.2,2.2%
CCc1nc(SCc2ccc(F)cc2)[nH]c(=O)c1C#N,-1.2%,-0.5,8%,8,?,1.9,1.4%
O=C(COC(=O)c1ccc2c(c1)OCO2)NCc1ccc(Cl)cc1,-5.4%,-1.0,1%,5,-8,1.0,1.2%
O=C(NNC(=O)C12CC3CC(CC(C3)C1)C2)[C@@H]1C[C@H]1c1ccccc1,/,0.0,13%,3,-14,-0.6,4.2%
COc1cc([C@H]2c3[nH]c4ccccc4c3C[C@H]3C(=O)N4[C@@H](c5cc(OC)c(OC)c(OC)c5)c5[nH]c6ccccc6c5C[C@H]4C(=O)N23)cc(OC)c1OC,30%,1.7,23%,-12,1,0.2,0.0%
Cc1cccn2c(=O)c3cc(C#N)c(=N)n(Cc4cccnc4)c3nc12,-5.1%,/,/,3,/,-0.3,-1.4%
COc1cccc(CC2(CO)CCN(CC3=CC[C@H]4C[C@@H]3C4(C)C)CC2)c1,/,-2.2,-1%,3,4,0.0,4.3%
COc1ccc(CNS(=O)(=O)c2ccc(C(=O)N(C)C)s2)cc1,-0.5%,/,/,6,/,-0.7,0.6%
Cc1nn(CC(=O)NC2CCCCC2)c(=O)c2cc3cc(F)ccc3n12,-26%,/,/,-8,/,-0.2,0.2%
O=C(CSc1n[nH]c(=O)n1-c1ccccc1)Nc1ccccc1C(F)(F)F,0.6%,-1.0,12%,14,1,-0.2,4.1%
CNc1ccc2ncc(-c3ccc(OC)c(OC)c3)n2n1,5.0%,/,/,/,/,1.7,1.2%
CCOc1ccc(CCNC(=O)Cn2nc(C)c3c(C)n(-c4ccccc4)nc3c2=O)cc1OCC,2.4%&-1.9%,1.5,22%,-8&4,6,0.0&-1.0,1.4%&-1.9%
O=C(c1cc(S(=O)(=O)N2CCCC2)c(Cl)cc1Cl)N1CCCC1,/,-1.0,14%,-1,-1,0.4,1.0%
O=C(N/N=C/c1ccc(OC(=O)c2ccco2)cc1)c1ccncc1,-0.6%,0.4,20%,-12,2,0.9,0.0%
O=C1C2C3C=CC(C4CC34)C2C(=O)N1/N=C/c1cccs1 (centres undefined),-1.0%,/,8%,-16,-6,1.0,0.8%
CCC(C)C(NC(=O)OC(C)(C)C)C(=O)NC(C)C(N)=O (centres undefined),1.2%,3.1,11%,-4,3,-0.6,3.6%
CC1C/C(=C\c2cccnc2)C(=O)/C(=C/c2cccnc2)C1 (centres undefined),0.6%,2.2,?,9,17,-1.0,-1.9%
COc1ccc(NC(=O)C2CCC(CNS(=O)(=O)c3csc(C(N)=O)c3)CC2)cc1 (centres undefined),-1.1%,/,/,14,/,0.1,0.4%
O=C(Nc1ccccc1Cl)Nc1cccc2cccnc12,-2.8%,1.2,2%,14,9,1.0,2.1%
O=C(NCC1CCCCC1)c1ccc2sc([C@H]3C[C@H](O)[C@@H](CO)O3)nc2c1,-4.8%,/,/,/,/,-0.2,0.0%
COc1ccc(NC(=O)c2ccc(OCc3c(C)noc3C)c(OC)c2)cn1,/,-18,6%,19,-8,-0.4,1.3%
COc1ccc(-c2noc(CCC(=O)N3CCN(c4cccc(C)c4C)CC3)n2)cc1,-1.4%,/,/,2,/,-1.0,-0.4%
Cc1ccc(C)c(N2CCN(C(=O)C3CCC(CNS(=O)(=O)c4cccs4)CC3)CC2)c1 (centres undefined),-2.2%,/,/,14,/,3.9,-0.1%
COc1cc(NC(=O)Cc2ccc(OC)c(S(=O)(=O)N3CCOCC3)c2)c(OC)cc1Cl,/,/,19%,-25,9,-0.2,0.6%
Cc1cc(OCC(O)CN2CCOCC2)cc(C)c1Cl (centres undefined),-2.2%,0.0,6%,0,-19,0.3,2.2%
COCCNC(=O)NC(=O)COC(=O)c1cccn1C,/,-3.6,-1%,14,9,1.1,-1.4%
CC(CC(=O)N1CCN(S(=O)(=O)c2ccccc2)CC1)n1cncn1 (centres undefined),/,2.5,7%,27,-5,-0.6,-0.4%
CCC1(c2ccccc2)NC(=O)N(CC(=O)Nc2cc(S(=O)(=O)N3CCOCC3)ccc2OC(C)C)C1=O (centres undefined),2.1%,/,/,-1,3,0.6,1.6%
Cc1nn(CCCC(=O)NCc2ccc(F)cc2)c(C)c1[N+](=O)[O-],1.8%,5.1,9%,-12,17,2.0,3.2%
CSc1sc(C(=O)N2CCCCC2)c(-c2cccs2)c1C#N,/,-0.1,2%,0,-9,-0.1,1.0%
CC(=O)c1c(C)[nH]c(C(=O)OCC(=O)Nc2cc(C)on2)c1C,-4.4%,0.3,9%,-1,8,3.5,0.4%
Cc1ccccc1C(=O)Nc1nnc(S(=O)(=O)N(C)Cc2ccccc2)s1,-16%,/,/,10,/,2.1,0.6%
CN(CCCNC(=O)Cn1c(=O)c2cccn2c2ccccc21)Cc1ccccc1,-9.2%,/,2%,-14,6,-0.1,-1.5%
COc1ccc(OC)c(Nc2nc(NCc3ccco3)nc(N)c2[N+](=O)[O-])c1,/,2.2,-10%,15,29,1.8,1.7%
COc1ccccc1N(CC1CO1)S(=O)(=O)c1ccc(C)cc1 (centres undefined),/,-1.3,2%,10,25,-0.5,1.0%
